Assay outcomes deposited in PubChem BioAssay by several laboratories.
Rce1 inh – inhibitors of yeast Ras-converting enzyme; Q03530; 0.27% of 290,000 active; AID 2563; yeast membranes, quenched prenylated peptide cleavage fluorescence; calls only;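 active means fall in fluorescence gain of 50% or more versus controls, with final raw signal at or below 3038400; inconclusive means same 50% fall but final raw signal above 3038400; inactive means fall in fluorescence gain under 50%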;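 further: plate controls were neutral control wells for no effect and wells lacking membranes for full effect; tested at 10 µM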
MT1-MMP act inh – blocks activation of human MT1-MMP; HT1080 RFP-PRO-GFP cells, GFP/RFP ratio fluorescence, overnight; percent of plate control window, DMSO zero; P50281; GFP/RFP ratio change, % at 20 µM; 0.061% of 360,000 active;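 active means GFP/RFP ratio change of at least 30% with cell ATP level not reduced by more than half and red fluorescence within 50% of control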; further: strong numbers were not always called active
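system = RFP-PRO-GFP reporter HT1080 cells | dosing = 20 µM single dose, 1% DMSO | timing = overnight cell settling, then overnight compound exposure, 37 °C, 5% CO2 | read-out basis = GFP/RFP fluorescence ratio | controls = DMSO and RFP-L50D-GFP cell wells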
UUG fidelity – alters start codon recognition fidelity in yeast | S. cerevisiae UUG-firefly luciferase reporter, luminescence/redox ratio | activity score, % at 18.7 µM | 0.13% of 350,000 active | AID 602363;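 active means replicate mean at a twofold rise or more, about +100% in these data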;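 further: firefly luciferase made from a UUG start codon reports start codon fidelity; reporter light over untreated wells divided by growth signal over untreated wells; some hits fall short of that in this replicate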
CSC inhib – cancer stem cell inhibition | cancer stem cell-like cells viability, luminescence | AID 2717 | 1.1% of 300,000 active | inhibition, % at 7.5 µM;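 active means mean at 75% or more and at least half the replicates too; inconclusive means mean and replicates disagree; tested in HMLE shEcad cells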;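 further: 0% = median of negative and 100% = median of positive control wells; the first replicate is given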
HIV Env fusion – blocks HIV Env-driven cell-cell fusion; HeLa-JRFL Env/CEM21 cell fusion, luciferase; 1.1% of 360,000 active; inhibition, % at 12.3 µM;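 active means mean replicate inhibition score of at least 50 and every replicate individually at or above 50; inconclusive means only one of the two criteria met; inactive means mean below 50 and not all replicates reaching 50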;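 further: 0% = plate neutral controls and 100% = maraviroc near 300 nM; one replicate is shown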
eIF4H inh – inhibitors of RNA binding by human eIF4H | eIF4H fluorescence polarization binding assay | Q15056 | 0.94% of 290,000 active | inhibition, % at 35 µM;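 active means 50% or more with normal probe brightness, or confirmed in later tests; inconclusive means above 50% with abnormal brightness, or retests that disagree; inactive means below 50% or failed in later tests; about a fifth of its hits are not listed in these tables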;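 further: calls also rest on retests at 20 µM and on dose response follow-up; 0% = protein and probe with vehicle and 100% = probe without protein; strong numbers were not always called active; many hits fall short of the cut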
PABP polyA inh – PABP-poly(A) binding inhibition. 1% of 290,000 active. AID 2014. inhibition, % at 35 µM. PABP-poly(A) RNA binding, fluorescence polarization;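 active means 50% or more with normal probe brightness, or confirmed in later tests; inconclusive means above 50% with abnormal brightness, or retests that disagree; inactive means below 50% or failed in later tests; about a fifth of its hits are not listed in these tables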;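 further: calls also rest on retests at 20 µM and on dose response follow-up; controls were probe without protein and protein plus probe with vehicle; some compounds called inactive have numbers as strong as hits; many hits fall short of the cut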
Target sequence (P11940 whole entry, looked up): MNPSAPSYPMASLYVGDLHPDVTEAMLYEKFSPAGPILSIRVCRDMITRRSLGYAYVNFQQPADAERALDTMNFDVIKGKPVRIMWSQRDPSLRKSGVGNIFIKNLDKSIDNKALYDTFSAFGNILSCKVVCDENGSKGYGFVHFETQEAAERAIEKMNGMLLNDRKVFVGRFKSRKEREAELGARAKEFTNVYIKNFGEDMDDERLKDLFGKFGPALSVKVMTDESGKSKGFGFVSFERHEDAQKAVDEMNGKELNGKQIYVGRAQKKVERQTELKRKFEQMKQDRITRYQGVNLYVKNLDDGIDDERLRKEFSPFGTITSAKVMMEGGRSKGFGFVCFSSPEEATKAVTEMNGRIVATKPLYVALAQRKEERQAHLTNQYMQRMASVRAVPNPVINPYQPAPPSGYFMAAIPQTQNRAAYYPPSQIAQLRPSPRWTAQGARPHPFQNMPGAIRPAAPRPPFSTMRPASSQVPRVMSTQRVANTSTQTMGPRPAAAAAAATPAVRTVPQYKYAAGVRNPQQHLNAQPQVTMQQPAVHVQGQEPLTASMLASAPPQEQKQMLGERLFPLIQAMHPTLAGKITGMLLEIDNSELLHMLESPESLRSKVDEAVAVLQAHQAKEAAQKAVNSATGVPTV
MT1-MMP act inh RFP – second read-out of MT1-MMP act inh, no call of its own (marks repeat the call); RFP signal change, %; measured here: RFP expression control read;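 0 = vehicle wells; hits needed this value within 50% of zero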
* = called active by the depositor; i = inactive; ? = inconclusive; / = not tested or not shown; & = joins results of further samples. A portion of the library (hit frequency here may not be typical).

[1] C[C@H](CO)N1C[C@H](C)[C@H](CN(C)C(=O)c2ccncc2)OCc2cnnn2CCCC1=O
[2] CCN(CC)S(=O)(=O)c1cccc(-c2nc3n(n2)Cc2ccccc2-3)c1
[3] CCCCOc1ccc(-c2nnc(-c3ccco3)o2)cc1
[4] COc1ccc(NC(=O)CSc2nc(-c3ccncc3)nn2CC(=O)N2CCCC2)cc1
[5] COc1cc(/C=C/C(=O)c2ccc(NS(=O)(=O)c3ccc(C)cc3)cc2)cc(OC)c1O
[6] CCOC(=O)C1(C)CCN1C(=O)c1cc(F)ccc1C (stereo not drawn)
[7] CCOc1c(N2CC(C)OC(C)C2)c(=O)c1=O (stereo not drawn)
[8] Cc1sc2nc(SCCO)n(-c3ccccc3)c(=O)c2c1C
[9] CC(Sc1nnc2ccccn12)C(N)=O (stereo not drawn)
[10] O=C(O)/C=C/c1cccnc1

screen / no.,1,2,3,4,5,6,7,8,9,10
Rce1 inh,/,i,i,i,i,/,i,i,i,i
MT1-MMP act inh,-0.8,2.5,4.6,-1.2,-30.5,-2.2,-1.6,-0.1,-1.4,0.5
MT1-MMP act inh RFP,5.3,-3.8,2.9,-2.7,-9.2,-5.6,-1.6,0.2,4.0,2.7
UUG fidelity,-7.7&-14.1,-10.7,-26.4,-8.2,/,-12.6,-9.2,-38.7,-13.7,-18.8
CSC inhib,/,5.9,-2.0,7.3,80.0*,/,-5.8,-12.9,-6.7,-13.8
HIV Env fusion,25.6,/,-227.9,3.2,23.0,-16.2,-12.2,14.7,3.9,3.4
eIF4H inh,/,4.6,-5.9,7.5,-2.1,/,-5.6,-1.9,3.9,3.9
PABP polyA inh,/,19.8,-2.9,3.4,-12.0,/,-3.4,1.1,11.3,13.4

Record cards (already shown). Order of values: Rce1 inh, MT1-MMP act inh, MT1-MMP act inh RFP, UUG fidelity, CSC inhib, HIV Env fusion, eIF4H inh, PABP polyA inh
Cc1sc2nc(SCCO)n(-c3ccccc3)c(=O)c2c1C is entered as i, -0.1, 0.2, -38.7, -12.9, 14.7, -1.9, 1.1
CC(Sc1nnc2ccccn12)C(N)=O (stereo not drawn) is entered as i, -1.4, 4.0, -13.7, -6.7, 3.9, 3.9, 11.3
COc1ccc(NC(=O)CSc2nc(-c3ccncc3)nn2CC(=O)N2CCCC2)cc1 is entered as i, -1.2, -2.7, -8.2, 7.3, 3.2, 7.5, 3.4

(further entries)
[11] O=C(COc1ccc(Br)cc1)NCCO
[12] Cc1ccc(C(OCC(O)CNC(CO)C(O)c2ccc([N+](=O)[O-])cc2)c2ccccc2)cc1 (stereo not drawn)
[13] CCOC(=O)C1=C(N)c2ccccc2CC1C1CCCC1 (stereo not drawn)
[14] Cc1cc(C)nc(SCC(=O)N/N=C\C(Br)=C\c2ccccc2)n1
[15] CCN(Cc1ccccc1)C(=O)COC(=O)c1cc(Cl)nc(Cl)c1
[16] CCCOc1ccc(-c2cn3ccccc3n2)cc1
[17] CC(C)NC(=O)C1CCN(C2CCN(Cc3ccc4cccc(F)c4n3)CC2)CC1
[18] COc1ccccc1NC(=O)CCN1C(=O)C2C3CCC(C3)C2C1=O (stereo not drawn)
[19] Cc1ccc(CNC(=O)c2ccccc2N)cc1
[20] CCCCN1CC(=O)N2[C@H]3c4cc(Cl)ccc4OC[C@@H]3[C@H](c3ccccc3)[C@]2(C)C1=O

screen / no.,11,12,13,14,15,16,17,18,19,20
Rce1 inh,i,i,i,i,i,i,i,i,i,/
MT1-MMP act inh,0.8,-3.8,-1.8,0.4,2.6,/,-1.4,-0.1,-1.2,-0.1
MT1-MMP act inh RFP,5.5,-4.2,-8.7,-3.5,4.5,/,1.4,3.5,0.7,-1.0
UUG fidelity,/,11.0,-3.5,/,/,/,/,-12.6,-13.5,-7.3
CSC inhib,-16.9,-5.1,24.9,/,-17.0,6.4,-3.3,1.9,-2.0,-11.9
HIV Env fusion,-4.3,7.8,16.7,7.3,-17.0,-104.6,5.8,-47.5,/,38.7
eIF4H inh,5.9,-4.3,6.3,-12.3,-21.0,-13.1,12.8,-5.7,-2.4,/
PABP polyA inh,13.8,-6.3,-3.4,-2.8,-6.6,6.6,4.3,6.2,0.9,/

[21] COc1ccc(S(=O)(=O)Nc2ccccc2C(=O)N2CCCC2)cc1C
[22] CCCCC(=O)Nc1ccc(NCc2ccc(C)s2)cc1
[23] O=C(CSc1nc(=O)n(CCCN2CCOCC2)c2c1CCC2)Nc1ccccc1F
[24] CCC1=NN2C(=N)/C(=C\c3ccc(SCc4ccco4)o3)C(=O)N=C2S1
[25] Cc1c(N(C(=O)Nc2ccccc2)C2=NCC(C)S2)c(=O)n(-c2ccccc2)n1C (stereo not drawn)
[26] C#Cc1ccc([C@@H]2C=C(C(=O)O)O[C@H](OCCCCO)C2)cc1
[27] Cc1cccc(C(=O)NCC(=O)OCC(=O)c2cc(C)n(CC3CCCO3)c2C)c1 (stereo not drawn)
[28] CCOCCCn1c(SCC(=O)Nc2ccc3[nH]c(=O)[nH]c3c2)nc2ccccc2c1=O
[29] COC(=O)c1ccc(C2CC(=O)Nc3cc(OC)c(OC)cc32)cc1 (stereo not drawn)
[30] O=C(COc1cc(F)ccc1[N+](=O)[O-])Nc1cccc(S(=O)(=O)NC2=NCCC2)c1

screen / no.,21,22,23,24,25,26,27,28,29,30
Rce1 inh,i,i,i,/,i,i,/,i,i,/
MT1-MMP act inh,0.6,-0.9,-0.4,-40.1,0.8,10.3,1.8,3.7,10.3,-2.2
MT1-MMP act inh RFP,-0.8,-5.3,0.7,90.9,6.6,4.5,-0.9,2.7,-0.2,3.5
UUG fidelity,/,-7.1,-12.4,-11.8,-4.6,-19.7,/,/,-5.3,1.0
CSC inhib,-10.6,-14.2,-3.6,-8.6,-7.9,4.4,8.5,-17.4,-5.5,9.0
HIV Env fusion,22.0,-13.2,/,-11.9,/,18.8,-36.4,/,6.9,-3.1
eIF4H inh,-2.4,-3.7,/,?,3.0,32.4,-0.4,/,0.8,/
PABP polyA inh,-1.5,-10.2,/,?,-3.9,25.6,4.4,/,4.3,/

[31] CC(C)(C)C(=O)NCCc1nc2ccccc2n1CC(=O)c1ccccc1
[32] CCN(Cc1nc(-c2cccc(C)c2)no1)C(=O)c1ccco1
[33] COc1ccc2c(c1)C=C(CN1CCN(C(C)C)C(CCO)C1)CO2 (stereo not drawn)
[34] N/C(=N/O)c1ccccc1N1CCC(Cc2ccccc2)CC1
[35] Cc1cc(C)nc(/N=C(\N)Nc2ccc(F)c([N+](=O)[O-])c2)n1
[36] COc1cccc(OC)c1NC(=O)CN(C)S(=O)(=O)c1ccc2c(c1)OCCO2
[37] Cc1ncc(CN2CCN(C3CCCC3)C(CCO)C2)s1 (stereo not drawn)
[38] Cc1cccc(C)c1NC(=O)CN(C)C(=O)c1cccc(NS(=O)(=O)c2ccccc2)c1
[39] CCC(C)NC(C(=O)Nc1ccc(Cl)c([N+](=O)[O-])c1)c1ccccc1 (stereo not drawn)
[40] COc1ccc(OCc2nnc(SCC(=O)Nc3cccc(C(C)=O)c3)o2)cc1

screen / no.,31,32,33,34,35,36,37,38,39,40
Rce1 inh,i,i,i,i,i,i,i,i,i,/
MT1-MMP act inh,2.6,-0.7,0.1,-9.6,-15.2,2.0,-0.6,0.6,4.4,-1.1
MT1-MMP act inh RFP,1.7,-0.6,-0.8,-21.9,-4.0,2.0,4.1,0.9,-1.3,4.0
UUG fidelity,-2.1,-10.0,-8.9,/,-9.1,4.6,-12.2,-3.0,/,-19.5
CSC inhib,-11.9,-8.9,25.3,19.4,0.7,-8.3,-4.4,-7.4,/,-12.7
HIV Env fusion,-31.4,17.9,-4.4,26.2,-0.7,6.1,-10.1,/,/,-2.4
eIF4H inh,-11.7,-4.5,4.5,9.7,21.8,-1.9,-11.1,/,20.2,/
PABP polyA inh,21.2,-8.5,-8.8,7.1,-8.5,7.2,0.8,/,-2.7,/

[41] Cc1cc(C)c(NC2=CC(=O)CC(C)(C)C2)c(C#N)c1
[42] COc1ccc(NC(=O)CNC(=O)c2cccs2)cc1Cl
[43] CCCSc1nc(=O)n2cc(C)ccc2n1
[44] CC(C)(C)CNC(=O)c1cccc2c1C(=O)c1ccc(N3CCCC3)cc1S2(=O)=O
[45] NC(=O)c1ccc(SCC(=O)NC2CCCCC2)c([N+](=O)[O-])c1
[46] Cn1c(NCc2cccnc2)nc2cc(-c3ccc(C(=O)N4CCOCC4)cc3)sc2c1=O
[47] CCN(CC)CCNC(=O)c1cc(Nc2ccc(OC)c(OC)c2)nc2ccccc12
[48] COc1ccc(NC(=O)[C@H](C)NC(=O)C2CCN(S(=O)(=O)c3ccc(C)cc3)CC2)cc1OC
[49] CCOC(=O)COc1nc(N(C)C)nc(N(C)C)n1
[50] Cn1c(Cn2c(C(F)(F)F)nc3ccccc32)nc2ccccc21

screen / no.,41,42,43,44,45,46,47,48,49,50
Rce1 inh,i,i,/,/,i,/,i,i,i,i
MT1-MMP act inh,-2.4,-3.9,2.8,-126.6,1.3,1.0,-1.9,0.3,2.0,1.0
MT1-MMP act inh RFP,3.2,-3.9,2.4,-1.5,3.8,-0.2,3.4,0.4,2.2,3.9
UUG fidelity,-18.4,-12.9,-4.9,-13.8,/,-9.9,-12.7,-8.0,-10.1,-16.5
CSC inhib,-3.2,-10.0,-11.4,/,2.3,/,-6.6,9.9,2.3,-7.6
HIV Env fusion,-7.1,-3.9,/,19.2,0.8,-24.7,17.9,8.1,/,/
eIF4H inh,8.3,-4.7,0.8,/,-3.0,/,-18.7,-5.5,-3.0,-2.9
PABP polyA inh,-0.6,-5.5,4.0,/,18.2,/,-15.8,7.3,0.9,5.7

[51] O=C(O)CCC(=O)OCCc1cc2ccccc2c(=O)o1
[52] CNC(=S)Nc1ccc(OC)c(OC)c1
[53] COc1cc(/C=C2/C(=O)NN(c3ccc(F)cc3)C2=O)cc(Cl)c1O
[54] COc1ccc(CNC(=O)Cc2c(C(=O)O)[nH]c3ccccc23)cc1
[55] CCc1ccccc1NC(=O)CNC(=O)c1ccc(S(=O)(=O)NCc2ccco2)cc1
[56] COc1ccc(-c2nc(CS(=O)CC(=O)NCc3ccc4c(c3)OCO4)c(C)o2)cc1OC (stereo not drawn)
[57] Cn1c(SCC(=O)N(C2CCCCC2)C2CCCCC2)nnc1-c1cccs1
[58] O=C(CSCc1ccccc1)Nc1ccc2c(c1)OCO2
[59] COCCCn1nnnc1SCC(=O)Nc1nc(C)c(C)s1
[60] Cc1ccc(S(=O)(=O)NC(=O)NCc2ccco2)cc1

screen / no.,51,52,53,54,55,56,57,58,59,60
Rce1 inh,/,i,i,i,/,i,i,i,i,/
MT1-MMP act inh,-0.4,0.7,-0.3,0.4,6.5,1.9,-10.1,5.4,3.3,-3.2
MT1-MMP act inh RFP,-0.3,2.8,1.4,4.2,5.7,12.6,-14.4,7.6,4.6,3.2
UUG fidelity,-16.4,-20.0,-15.3,-19.8,-6.4,-12.3,21.3,-18.6,-18.9,-3.3
CSC inhib,/,1.6,-8.3,-8.8,/,-11.4,10.2,-3.0,-11.7,/
HIV Env fusion,4.4,-11.6,-5.1,/,10.3,3.9,/,/,/,-10.9
eIF4H inh,/,8.3,?,7.0,/,23.7,5.8,-4.5,-9.1,/
PABP polyA inh,/,-18.3,?,5.1,/,3.4,-1.5,29.3,6.2,/
